Screens: PubChem BioAssay, several laboratories
Yeast UUG start: yeast start codon fidelity modulation. S. cerevisiae UUG-firefly luciferase reporter, luminescence/redox ratio. activity score, % at 18.7 µM. 350,000 tested, 0.13% active. AID 602363;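 active means replicate mean at a twofold rise or more, about +100% in these data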;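 further: firefly luciferase made from a UUG start codon reports start codon fidelity; reporter light over untreated wells divided by growth signal over untreated wells; some hits fall short of that in this replicate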
eIF4H inh: inhibitors of RNA binding by human eIF4H; Q15056; eIF4H fluorescence polarization binding assay; inhibition, % at 35 µM; 290,000 tested, 0.94% active; AID 2012;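 active means 50% or more with normal probe brightness, or confirmed in later tests; inconclusive means above 50% with abnormal brightness, or retests that disagree; inactive means below 50% or failed in later tests; about a fifth of its hits are not listed in these tables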;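 further: calls also rest on retests at 20 µM and on dose response follow-up; 0% = protein and probe with vehicle and 100% = probe without protein; strong numbers were not always called active; many hits fall short of the cut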
HIV Env fusion: inhibitors of HIV Env-mediated cell fusion | inhibition, % at 12.3 µM | HeLa-JRFL Env/CEM21 cell fusion, luciferase | 360,000 tested, 1.1% active;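 active means mean replicate inhibition score of at least 50 and every replicate individually at or above 50; inconclusive means only one of the two criteria met; inactive means mean below 50 and not all replicates reaching 50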;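 further: 0% = plate neutral controls and 100% = maraviroc near 300 nM; one replicate is shown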
MT1-MMP act inh: blocks activation of human MT1-MMP; P50281; HT1080 RFP-PRO-GFP cells, GFP/RFP ratio fluorescence, overnight; percent of plate control window, DMSO zero; GFP/RFP ratio change, % at 20 µM; 360,000 tested, 0.061% active; AID 651647;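 active means GFP/RFP ratio change of at least 30% with cell ATP level not reduced by more than half and red fluorescence within 50% of control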; further: strong numbers were not always called active
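Assay system: HT1080 RFP-PRO-GFP cells. Benchmarks: DMSO vehicle wells and RFP-L50D-GFP reporter cell wells. Times: overnight cell settling, then overnight compound exposure, 37 °C, 5% CO2. Compound: 20 µM single dose, 1% DMSO. Read-out basis: GFP/RFP fluorescence ratio.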
CSC inhib: cancer stem cell inhibition; AID 2717; cancer stem cell-like cells viability, luminescence; 300,000 tested, 1.1% active; inhibition, % at 7.5 µM;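 active means mean at 75% or more and at least half the replicates too; inconclusive means mean and replicates disagree; tested in HMLE shEcad cells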;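 further: 0% = median of negative and 100% = median of positive control wells; the first replicate is given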
Rce1 inhib: yeast Ras-converting enzyme inhibition; calls only; AID 2563; yeast membranes, quenched prenylated peptide cleavage fluorescence; Q03530; 290,000 tested, 0.27% active;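 active means fall in fluorescence gain of 50% or more versus controls, with final raw signal at or below 3038400; inconclusive means same 50% fall but final raw signal above 3038400; inactive means fall in fluorescence gain under 50%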;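 further: plate controls were neutral control wells for no effect and wells lacking membranes for full effect; tested at 10 µM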
Target sequence (Q03530 whole entry, looked up): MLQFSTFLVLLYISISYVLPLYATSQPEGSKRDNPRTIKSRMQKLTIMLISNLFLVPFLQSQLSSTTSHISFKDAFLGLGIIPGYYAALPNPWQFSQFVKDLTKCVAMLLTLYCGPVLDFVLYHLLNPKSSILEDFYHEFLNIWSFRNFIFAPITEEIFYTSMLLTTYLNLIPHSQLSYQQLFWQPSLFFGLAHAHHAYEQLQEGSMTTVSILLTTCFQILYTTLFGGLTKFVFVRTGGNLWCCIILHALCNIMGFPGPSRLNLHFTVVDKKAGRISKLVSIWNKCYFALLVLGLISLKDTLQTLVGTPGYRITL
PABP FP inh: blocks human PABP binding to poly(A) RNA. inhibition, % at 35 µM. fluorescence polarization. P11940. AID 2014. 290,000 tested, 1% active;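 active means 50% or more with normal probe brightness, or confirmed in later tests; inconclusive means above 50% with abnormal brightness, or retests that disagree; inactive means below 50% or failed in later tests; about a fifth of its hits are not listed in these tables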;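 further: calls also rest on retests at 20 µM and on dose response follow-up; controls were probe without protein and protein plus probe with vehicle; some compounds called inactive have numbers as strong as hits; many hits fall short of the cut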
eIF4H inh retest: recorded beside eIF4H inh, whose call it bears; inhibition, %; compound at 20 µM; confirmation average;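 mean of two retest wells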
PABP FP inh retest: further read-out of PABP FP inh, marked with its call; inhibition, %; compound at 20 µM; confirmation repeats;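 mean of two retest wells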
MT1-MMP act inh RFP: further read-out of MT1-MMP act inh, marked with its call; RFP signal change, %; measured here: RFP expression control read;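 0 = vehicle wells; hits needed this value within 50% of zero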
The depositor's hits bear a star; i = inactive; ? = inconclusive; nt = no result given.

SMILES	Yeast UUG start	eIF4H inh	HIV Env fusion	MT1-MMP act inh	MT1-MMP act inh RFP	CSC inhib	Rce1 inhib	PABP FP inh	others
Cc1ccc(C(=O)Nc2ncc([N+](=O)[O-])s2)cc1	-81	-9	36	-3	-38	37	i	3
COc1ccc(C)cc1NC(=S)Nc1ccccc1SC	nt	-10	0	-5	7	-24	i	-11
O=C(Nc1ccccc1)/C(=C1\CCCN1)[N+](=O)[O-]	nt	-1	-4	3	5	-7	i	0
Nc1[nH]c2cc([N+](=O)[O-])ccc2c1-c1ccccn1	-11	51	11	-28	13	36	i	17*	eIF4H inh retest=-7;PABP FP inh retest=90*
COc1ccc(-c2csc(C(C)(O)c3cccc(OC)c3)n2)cc1 (stereo not drawn)	-8	nt	22	7	-29	nt	nt	nt
COc1ccccc1C1=NOC(Cn2c(=O)c3c(ncn3C)n(C)c2=O)C1 (stereo not drawn)	-3	6	nt	0	2	-6	i	9
Cc1ccc(C)c(NC(=O)c2ccccc2NS(=O)(=O)c2cc([N+](=O)[O-])ccc2C)c1	-1	3	?	-33	-41	97*	i	16
CC1(C)C(=O)CCC2(C)C1=CCC1C2C(=O)CC2(C)C1CCC2(O)C(=O)CO (stereo not drawn)	9	nt	-8	3	5	nt	nt	nt
CS(=O)(=O)c1ccc2nc(NC(=O)c3ccc(Cl)cc3)sc2c1	-23	-9	-9	2	-2	2	nt	-12
Cc1cccc(Cn2cnc3ccccc32)c1	28	7	-104	0	0	12	i	-1
COc1ccc(CCNC(=O)N2c3ccccc3Sc3ccccc32)cc1	-7	nt	75*	-7	-19	24	i	nt
CC(=O)c1ccc(NC(=O)c2cnsn2)cc1	nt	4	4	-3	0	2	i	1
O=C(/C=C/c1ccccn1)c1cc(Br)ccc1O	-29	-3	9	-2	-2	12	i	0
COc1cc(SC)ccc1C(=O)Nc1ncc(C)s1	nt	3	39	1	0	-5	i	12
COCCCn1c(=O)c2sccc2n(Cc2ccccc2)c1=O	-8	4	5	-1	4	-2	i	9
COc1ccc2oc(C(=O)OCC(=O)N3CCN(S(=O)(=O)c4ccc(C)cc4)CC3)c(C)c2c1	-15	4	13	-3	-2	12	i	0
Cc1ccc(C)c(NCC(O)c2ccccc2)c1 (stereo not drawn)	-3	-8	44	0	2	nt	i	-7
CCNC(=S)Nc1ccc(OC(F)(F)F)cc1	-24	6	7	-2	-3	-12	i	1
O=C(CSC1=NS(=O)(=O)c2cc(Cl)ccc2N1)Nc1ccccc1C(F)(F)F	-8	nt	nt	-4	2	6	i	nt
CC(C)c1ccc(NC(=O)Nc2nc(C(N)CCc3ccccc3)cs2)cc1 (stereo not drawn)	5	nt	10	-27	-19	nt	nt	nt
CCN(CC)C(=O)c1cccc(-c2csc(C(O)c3ccc(F)cc3)n2)c1 (stereo not drawn)	-15	nt	36	-2	-17	nt	nt	nt
Cc1nc(SCc2ccc(OCCC(C)C)cc2)n[nH]1	nt	3	-12	3	-5	nt	i	6
Cc1ccc(NC(=O)CNc2ccccc2N2CCCC2=O)cc1S(=O)(=O)N1CCOCC1	-4	nt	-1	0	1	nt	nt	nt
CCOc1ccc(S(=O)(=O)N2CCCCC2)cc1NC(=O)CCNC(=O)c1ccco1	-16	nt	-16	2	5	nt	nt	nt

Brought forward from above: two compounds; new compounds follow.
SMILES	Yeast UUG start	eIF4H inh	HIV Env fusion	MT1-MMP act inh	MT1-MMP act inh RFP	CSC inhib	Rce1 inhib	PABP FP inh	others
Cc1ccc(NC(=O)CNc2ccccc2N2CCCC2=O)cc1S(=O)(=O)N1CCOCC1	-4	nt	-1	0	1	nt	nt	nt
CCOc1ccc(S(=O)(=O)N2CCCCC2)cc1NC(=O)CCNC(=O)c1ccco1	-16	nt	-16	2	5	nt	nt	nt
CN(CC(=O)Nc1cccc(F)c1)C(=O)COc1ccc2c(c1)CCC2	-13	nt	nt	-1	-3	8	nt	nt
COc1ccc(C2/C=C\CN(S(=O)(=O)/C=C/c3ccccc3)CC(=O)N2Cc2ccc(F)cc2)cc1 (stereo not drawn)	-25	-2	-7	0	-1	19	i	3
Cc1nn(Cc2ccccc2)c(C)c1CCC(=O)O	1	2	11	1	7	-2	i	1
O=C(Nc1ccc(Cl)cc1)c1nc[nH]c1C(=O)NCCCCNC(=O)c1[nH]cnc1C(=O)Nc1ccc(Cl)cc1	-15	nt	44	-12	3	68	nt	nt
COc1ccc(-n2c(=S)[nH]c3cc(C(=O)N4CCN(c5ccccc5)CC4)ccc3c2=O)cc1	-22	-16	7	1	-6	-2	nt	0
Cc1c(C(=O)Nc2nc3ccccc3[nH]2)oc2ccc(Br)cc12	-16	10	-127	7	-2	-6	i	-1
COc1cc2sc3ccc(C#Cc4ccc(N)cc4)cc3c(=O)c2cc1OC	-14	nt	-23	7	-1	14	i	nt
CCOc1ccc(CCNC(=O)COC(=O)c2cc(OC)cc(OC)c2)cc1OCC	5	-6	8	2	1	-4	i	4
COc1ccc(N(C)S(=O)(=O)c2cccc(C(=O)NCC3CCCO3)c2)cc1 (stereo not drawn)	-7	0	nt	-2	-3	-13	i	0
CCCCNC(=O)C1CC(=O)N(CCC(C)C)C1 (stereo not drawn)	1	5	nt	10	5	-19	i	3
N#C/C(=C\c1cccc(Oc2ccc(C(F)(F)F)cc2[N+](=O)[O-])c1)c1nc2ccccc2[nH]1	-15	-5	nt	-2	-6	69	i	-2

An excerpt from above in order of molecular weight, ascending.
SMILES	Yeast UUG start	eIF4H inh	HIV Env fusion	MT1-MMP act inh	MT1-MMP act inh RFP	CSC inhib	Rce1 inhib	PABP FP inh	others
Cc1ccc(C)c(NCC(O)c2ccccc2)c1 (stereo not drawn)	-3	-8	44	0	2	nt	i	-7
CCCCNC(=O)C1CC(=O)N(CCC(C)C)C1 (stereo not drawn)	1	5	nt	10	5	-19	i	3
Cc1nn(Cc2ccccc2)c(C)c1CCC(=O)O	1	2	11	1	7	-2	i	1
CCNC(=S)Nc1ccc(OC(F)(F)F)cc1	-24	6	7	-2	-3	-12	i	1
Cc1nc(SCc2ccc(OCCC(C)C)cc2)n[nH]1	nt	3	-12	3	-5	nt	i	6
CN(CC(=O)Nc1cccc(F)c1)C(=O)COc1ccc2c(c1)CCC2	-13	nt	nt	-1	-3	8	nt	nt
Cc1c(C(=O)Nc2nc3ccccc3[nH]2)oc2ccc(Br)cc12	-16	10	-127	7	-2	-6	i	-1
CCN(CC)C(=O)c1cccc(-c2csc(C(O)c3ccc(F)cc3)n2)c1 (stereo not drawn)	-15	nt	36	-2	-17	nt	nt	nt
COc1cc2sc3ccc(C#Cc4ccc(N)cc4)cc3c(=O)c2cc1OC	-14	nt	-23	7	-1	14	i	nt
CC(C)c1ccc(NC(=O)Nc2nc(C(N)CCc3ccccc3)cs2)cc1 (stereo not drawn)	5	nt	10	-27	-19	nt	nt	nt
COc1ccc(N(C)S(=O)(=O)c2cccc(C(=O)NCC3CCCO3)c2)cc1 (stereo not drawn)	-7	0	nt	-2	-3	-13	i	0
CCOc1ccc(CCNC(=O)COC(=O)c2cc(OC)cc(OC)c2)cc1OCC	5	-6	8	2	1	-4	i	4
N#C/C(=C\c1cccc(Oc2ccc(C(F)(F)F)cc2[N+](=O)[O-])c1)c1nc2ccccc2[nH]1	-15	-5	nt	-2	-6	69	i	-2
COc1ccc(-n2c(=S)[nH]c3cc(C(=O)N4CCN(c5ccccc5)CC4)ccc3c2=O)cc1	-22	-16	7	1	-6	-2	nt	0
COc1ccc2oc(C(=O)OCC(=O)N3CCN(S(=O)(=O)c4ccc(C)cc4)CC3)c(C)c2c1	-15	4	13	-3	-2	12	i	0
COc1ccc(C2/C=C\CN(S(=O)(=O)/C=C/c3ccccc3)CC(=O)N2Cc2ccc(F)cc2)cc1 (stereo not drawn)	-25	-2	-7	0	-1	19	i	3
O=C(Nc1ccc(Cl)cc1)c1nc[nH]c1C(=O)NCCCCNC(=O)c1[nH]cnc1C(=O)Nc1ccc(Cl)cc1	-15	nt	44	-12	3	68	nt	nt
